Screens (PubChem BioAssay)
VACV mCherry inh: qHTS for Stage-Specific Inhibitors of Vaccinia Orthopoxvirus: mCherry Reporter Primary qHTS. Vaccinia virus mCherry reporter infection, fluorescence; about a quarter of the inactives have no number. Potency, µM (highest dose often 36.5 µM), for the others: at the top dose activity change, negative = inhibition, hits mostly inhibitors. hit rate 0.63% among 310,000. AID 720579, 2013; active = well fitted inhibition curve with a large enough effect; inconclusive = small, poorly fitted or top-dose-only effect; inactive = no such curve, though single readings can be large or run the other way; tested in A549 cells; note: nearly all actives have a fitted effect of over 35% in size; inactives centre near -10
Vaccinia Venus: qHTS for Stage-Specific Inhibitors of Vaccinia Orthopoxvirus: Venus Reporter Primary qHTS | Vaccinia virus Venus reporter expression, fluorescence | AID 720580, 2013 | hit rate 0.46% among 330,000 | Potency, µM (top dose mostly 36.5 µM), inactives show top-dose activity change, negative = inhibition, usual class: inhibitors; active means well fitted inhibition curve with a large enough effect; inconclusive means small, poorly fitted or top-dose-only effect; inactive means no such curve, though single readings can be large or run the other way; tested in A549 cells; note: nearly all actives have a fitted effect of over 30% in size; inactives centre near -10
* hit, by the source's call; i = inactive; u = inconclusive; x = no result given; & = joins results of further samples. % is set by controls: 0 for no effect and ±100 for the full control effect; potency is the fitted concentration of half-maximal effect.

SMILES | VACV mCherry inh | Vaccinia Venus
Cc1ccc(-c2c(C)n([O-])c3c([n+]2=O)CCCCC3)cc1 | -4% | -10%
Cc1ccc(CNC(=O)c2nnc(Cc3cccc(F)c3)o2)cc1 | -15% | -8%
CCCC(=O)Nc1nc(CC(=O)OCC)cs1 | -2% | -9%
COc1ccc(CCNC(=O)Cn2nc(C)n3nc(-c4ccccc4)cc3c2=O)cc1OC | -7% | 0%
Cc1ccc(OC(C)C(=O)Nc2ccc(F)cc2)c([N+](=O)[O-])n1 (configuration not stated) | i | -16%
Cc1cc2nc3c(nc2cc1C)CCCC3 | 5% | -9%
CCN1C(=O)[C@@H]2[C@@H](c3ccc(-c4ccccc4)cc3)N3CCCC[C@@]3(C(=O)OC)[C@@H]2C1=O | -14% | -18%
CCOC(=O)N1CCN(C(=O)c2ccccc2NC(=O)c2ccc(C(C)(C)C)cc2)CC1 | i | -10%
Cc1ccc(S(=O)(=O)N=C2SCCCS2)cc1 | -14% | -23%
COc1ccc(OC)c(NC(=O)CS(=O)(=O)Cc2nc(-c3ccccc3C)oc2C)c1 | -7% | -13%
C=CCOc1ccc(/C=N/NC(=O)C(=O)Nc2ccccn2)cc1OC | -5% | -1%
COc1ccc(C2C(C#N)=C(/N=C/N3CCN(C)CC3)OC3=C2C(=O)CC(C)(C)C3)cc1OC (configuration not stated) | -11% | -12%
CC1CCN(C(=O)CSc2nc3c(cnn3-c3ccc(Cl)cc3)c(=O)[nH]2)CC1 | -4% | u
O=C(O)c1ccccc1-c1ccccc1C(=O)NNc1ccc([N+](=O)[O-])cc1 | i | 1%
COc1cc(CNC(=O)c2cc3ccccc3oc2=O)cc(OC)c1OC | i | -5%
CN1C[C@H]2CON(C)[C@H]2C[C@H]1c1cccc(-c2ccc(C#N)cc2)c1 | -19% | -23%
C=CCn1c(Sc2ccccc2)nc2c1c(=O)[nH]c(=O)n2C | x | -3%
COc1ccc(F)cc1S(=O)(=O)Nc1cccc(C(=O)O)c1 | -11% | 3%
Cc1ccc(-n2c(C)cc(C(=O)C(=O)Nc3ccccc3)c2C)c(C)c1 | -7% | -10%
COc1ccc(-c2nsc(NC(=O)c3oc4ccccc4c3C)n2)cc1 | -3% | -9%
Cc1ccc(OCCn2cc(C#N)c3ccccc32)cc1 | x | -21%
CC1(C)Cc2nc3[nH]c(=S)[nH]c(=O)c3cc2CO1 | 0% | -8%
Cc1ccc2nc(SCc3cccc([N+](=O)[O-])c3)nc(C)c2c1 | x | -18%
Cc1ccccc1NC(=O)c1ccc(F)c(S(=O)(=O)N(C)Cc2ccccc2)c1 | u | -29%
Cc1cc(=O)n2c(n1)NC(Nc1cccc(C)c1C)=NC2c1ccc(F)cc1 (configuration not stated) | 1% | 9%

Additional structures follow:
SMILES | VACV mCherry inh | Vaccinia Venus
COc1ccc([N+](=O)[O-])cc1N(CC(O)CN1C(=O)NC(C)(C)C1=O)S(=O)(=O)c1ccccc1 (configuration not stated) | -5% | 7%
O=C(Nc1sc2c(c1C(=O)NCC1CCCO1)CCCC2)c1cc(=O)c2ccccc2o1 (configuration not stated) | -12% | -15%
CCOc1ccc(-c2cc(C(=O)NC(C)c3ccccc3)c3ccccc3n2)cc1 (configuration not stated) | -19% | -12%
COC(=O)C(NC(=O)c1ccc(F)cc1)(Nc1nc(C)cs1)C(F)(F)F (configuration not stated) | x | -10%
COc1ccccc1C=C1C(=O)NC(=S)NC1=O | -11% | -10%
CCC(=O)n1nc(-c2ccc(OC)cc2)nc1N | x | -13%
CCOc1ccc(-c2nnn(CC(=O)Nc3cc(OC)ccc3OC)n2)cc1OCC | u | -11%
CC1(C2CC2)NC(=O)N(CC(=O)NCC(=O)Nc2ccc(F)c(F)c2F)C1=O (configuration not stated) | i | -9%
Cc1cccc(/N=C/C2=C(O)CC(C)(C)CC2=O)n1 | i | -13%
COc1cc2c(cc1OC)C1(CCCC1)CNC2c1cccc([N+](=O)[O-])c1 (configuration not stated) | -23% | -14%
CCN(CC)C(=O)Cn1cnc2sc(C(=O)N3CCN(c4ccc(OC)cc4)CC3)c(C)c2c1=O | -15% | -12%
CCOC(=O)N1CCC(NCCNC(=O)c2ccc(F)cc2)CC1 | -5% | -5%
O=C(COc1cc(Cl)ccc1Cl)Nc1nnc(C2CC2)s1 | i | -5%
O=C(NCCC(=O)N1CCCCC1)c1ccc(Br)cc1 | -12% | -1%
C[C@H](NC(=O)c1nc[nH]c1C(=O)NCc1ccccc1)C(=O)OC(C)(C)C | u | -26%
O=C(C(=O)N1CCN(C(=O)OCc2ccccc2)CC1)c1cccs1 | -20% | -7%
Cc1nnnn1/C(=C\c1ccccc1)C(=O)OCC(=O)N(C)C1CCS(=O)(=O)C1 (configuration not stated) | -3% | -2%
COCCn1nnnc1C(c1cc2ccc(OC)cc2[nH]c1=O)N1CCc2ccccc2C1 (configuration not stated) | i | -17%
O=C(/C=C/c1ccco1)N(Cc1ccc(F)cc1)C1CCS(=O)(=O)C1 (configuration not stated) | -4% | -3%
N#CCCN(C(=O)CN1C(=O)NC2(CCCC2)C1=O)c1ccccc1F | u | u
Cc1ccc2nc(-c3ccc(O)c(O)c3)cn2c1 | -4% | -13%
COc1ccc(OCC(O)CN2CCN(c3ccc(Cl)cc3)CC2)cc1 (configuration not stated) | u | -19%
O=C(CSc1nnc(NC(=O)C2CC2)s1)Nc1ccc(F)cc1F | -6% | -16%
COC(=O)c1ccc(C2/C(=C(/O)c3ccc(OC)cc3)C(=O)C(=O)N2CC2CCCO2)cc1 (configuration not stated) | 3% | 1%
O=C(O)Cc1cn(-c2ccccc2)nc1-c1ccccc1 | i | -7%

Shown with tabs: 16 of the compounds above.
Molecule	VACV mCherry inh	Vaccinia Venus
COc1ccc([N+](=O)[O-])cc1N(CC(O)CN1C(=O)NC(C)(C)C1=O)S(=O)(=O)c1ccccc1 (configuration not stated)	-5%	7%
O=C(Nc1sc2c(c1C(=O)NCC1CCCO1)CCCC2)c1cc(=O)c2ccccc2o1 (configuration not stated)	-12%	-15%
CCOc1ccc(-c2cc(C(=O)NC(C)c3ccccc3)c3ccccc3n2)cc1 (configuration not stated)	-19%	-12%
COC(=O)C(NC(=O)c1ccc(F)cc1)(Nc1nc(C)cs1)C(F)(F)F (configuration not stated)	x	-10%
COc1ccccc1C=C1C(=O)NC(=S)NC1=O	-11%	-10%
CCC(=O)n1nc(-c2ccc(OC)cc2)nc1N	x	-13%
CCOc1ccc(-c2nnn(CC(=O)Nc3cc(OC)ccc3OC)n2)cc1OCC	u	-11%
CC1(C2CC2)NC(=O)N(CC(=O)NCC(=O)Nc2ccc(F)c(F)c2F)C1=O (configuration not stated)	i	-9%
Cc1cccc(/N=C/C2=C(O)CC(C)(C)CC2=O)n1	i	-13%
COc1cc2c(cc1OC)C1(CCCC1)CNC2c1cccc([N+](=O)[O-])c1 (configuration not stated)	-23%	-14%
CCN(CC)C(=O)Cn1cnc2sc(C(=O)N3CCN(c4ccc(OC)cc4)CC3)c(C)c2c1=O	-15%	-12%
CCOC(=O)N1CCC(NCCNC(=O)c2ccc(F)cc2)CC1	-5%	-5%
O=C(COc1cc(Cl)ccc1Cl)Nc1nnc(C2CC2)s1	i	-5%
O=C(NCCC(=O)N1CCCCC1)c1ccc(Br)cc1	-12%	-1%
C[C@H](NC(=O)c1nc[nH]c1C(=O)NCc1ccccc1)C(=O)OC(C)(C)C	u	-26%
O=C(C(=O)N1CCN(C(=O)OCc2ccccc2)CC1)c1cccs1	-20%	-7%

(listing goes on)
SMILES | VACV mCherry inh | Vaccinia Venus
Cc1cc(C(=O)NCc2ccc(S(N)(=O)=O)cc2)cs1 | -7% | -3%
C/C(=N\Nc1nc(-c2ccccc2)cs1)c1cccs1 | i | -9%
CCOc1ccc(CCNC(=O)CCCc2nnc3n(C)c(=O)c4sccc4n23)cc1OCC | -6% | 1%
CCc1cccc(C)c1NC(=S)NCC(c1cccnc1)N1CCOCC1 (configuration not stated) | i | -6%
COc1ccc2ccccc2c1/C=N/NC(=S)Nc1cc(S(=O)(=O)N2CCOCC2)ccc1N1CCOCC1 | -13% | -13%
O=C(NCc1cccnc1)C(=O)NCC1OCCCN1S(=O)(=O)c1ccccc1 (configuration not stated) | i | -3%
Cc1cc(OCC(=O)N2CCC(C(N)=O)CC2)c2c(C)c(C)c(=O)oc2c1 | -6% | -8%
CNC(=O)c1cc(C(=O)c2ccc(Cl)cc2)c[nH]1 | i | -15%
Cc1cc(C)c2cc(C#N)c(NCCOC(=O)c3ccccc3C)nc2c1 | 5% | 19%
CCCc1cc(=O)n2c(nc3ccccc32)[nH]1 | x | u
CCC(C)[C@H]1COCCS(=O)(=O)N1Cc1ccc(C)cc1 (some centres not stated) | -2% | -12%&-23%
CC1=CC(C)(C)[N+](C)=CN1c1ccccc1 | -7% | -7%
N#CCOC(=O)[C@H](Cc1ccccc1)N1C(=O)c2ccccc2C1=O | i | -10%
Oc1ccc(-c2nc3ccc(Cl)cn3c2Nc2ccc(Cl)cc2)cc1 | -21% | -20%
O=S(=O)(NCc1ccc2c(c1)OCO2)c1ccc(F)c(F)c1 | -19% | -14%
COCCn1c(SCC(=O)NC2CCCC2)nc2ccccc2c1=O | -9% | -10%
CCOc1ccc(Cl)cc1/C=N/NC(=O)c1ccccc1 | -13% | -4%
COc1cc(C2c3c(oc4ccccc4c3=O)C(=O)N2c2nccs2)ccc1O (configuration not stated) | i | -13%
COC(=O)c1cn(-c2ccccc2)nc1-c1ccc(OC)cc1 | -12% | -22%
CCN(C(=O)CSc1nc(-c2ccc(C(C)C)cc2)no1)c1cccc(C)c1 | -19% | -19%
Cc1cccc(-n2c(C)cc(C=C3C(=O)c4ccccc4C3=O)c2C)c1 | -12% | -13%
CC1(c2ccccc2Cl)NC(=O)N(CC(=O)N2CCN(S(=O)(=O)c3ccccc3)CC2)C1=O (configuration not stated) | -23% | -20%
Cc1[nH]c(C(=O)N/N=C/c2ccc(N(C)C)cc2)c(C)c1C(=O)N/N=C/c1ccc(N(C)C)cc1 | 0% | -1%
Cc1[nH]c2ccc(C(=O)OC(C)C(=O)NC3(C#N)CCCCC3)cc2c1C (configuration not stated) | -7% | -15%
C=CCc1ccc(OCCCOc2ccc(C)c(C)c2)c(OC)c1 | x | -12%

(listing goes on)
SMILES | VACV mCherry inh | Vaccinia Venus
COc1cc(CC(=O)OCc2cccc([N+](=O)[O-])c2)cc(OC)c1OC | -8% | -13%
Cc1cc(C(=O)CCl)c(C)n1-c1ccon1 | -16% | -18%
S=C(c1ccccc1)N1CCCc2ccccc21 | -21% | -8%
O=C(NCc1cccc2[nH]ccc12)C1CCC(=O)N(CCc2ccccc2)C1 (configuration not stated) | i | -7%
C=Cc1ccc(Cn2c(=O)cc(C)c3c(C)nn(-c4ccccc4)c32)cc1 | -3% | 2%
COCCNCCCOc1ccc(Br)cc1Cl | i | -17%
COc1cccc(CNC(=O)CNC(=S)N(Cc2ccccc2)Cc2ccccc2F)c1 | -7% | -7%
O=C(Cc1c(Cl)cccc1Cl)Nc1cccc(S(=O)(=O)N2CCOCC2)c1 | -4% | -10%
COC(=O)c1cc2ccsc2n1Cc1nc(-c2cccc(Cl)c2)oc1C | -14% | -4%
O=C(NCCc1ccccc1)c1ccc(CSc2nc3ccncc3n2Cc2cccc(F)c2)cc1 | -28% | u
COc1cc2c(cc1OC)C(c1cccc([N+](=O)[O-])c1)NC(=O)C2 (configuration not stated) | -6% | -12%
COc1ccccc1OCC(=O)Nc1cc(S(=O)(=O)N2CCCCC2)ccc1N1CCCCC1 | -16% | -19%
COc1ccc(O)c(/C=N/NC(=O)c2ccc(N3CCCC3=O)cc2)c1 | 2.8µM* | u
COc1cc(OC)c(NC(=O)Cn2c(=O)cc(C(F)(F)F)c3c(C)nn(C)c32)cc1Cl | -7% | -3%
CCN(CC)S(=O)(=O)c1ccc2c(c1)c(=O)c(C(=O)NCc1cccs1)cn2C | 0% | -6%
O=c1cc(CCc2ccccc2)oc2cccc(O)c12 | -5% | -1%
NC(=O)Nc1ccc(F)cc1 | -9% | -1%
CCN1CCCc2cc(CN(CCN3CCOCC3)C(=O)Nc3ccc(C)c(C)c3)ccc21 | -3% | -10%
CCNC(=S)NNC(=O)c1ccc(S(=O)(=O)NCc2ccco2)cc1 | -12% | -18%
COc1ccc([N+](=O)[O-])cc1NS(=O)(=O)c1cc(C(=O)N2CCN(C)CC2)ccc1OC | -8% | -9%
COc1ccc(NC(=O)CSc2ccccn2)c([N+](=O)[O-])c1 | i | -18%
CCCn1c(SCC(=O)Nc2cc(Cl)ccc2OC)n[nH]c1=O | x | -10%
Cc1ccc(C(=O)Nc2cccc(C(=O)O)c2)cc1S(=O)(=O)N1CCCCC1 | x | -6%
O/N=C(/CBr)c1ccc2ccccc2c1 | i | -13%
O=C(c1cc(-c2cccs2)nc2ccccc12)N1CCN(CCO)CC1 | -14% | -9%

Next section.
SMILES | VACV mCherry inh | Vaccinia Venus
CCOC(=O)C1CCN(/C=C2/C(=O)NC(=S)N(c3cccc(OC)c3)C2=O)CC1 | i | -3%
O=C1CN2NC(=S)N(c3ccccc3)C2=CN1c1ccc(Cl)cc1 | i | -5%
CNc1nc(C)nc(-n2nc(C)cc2C)n1 | -10% | 3%
Cc1cc(Cl)ccc1OCC(=O)N1CCOc2ccc(CN3C[C@@H](C)O[C@@H](C)C3)cc2C1 | -13% | -1%
Cn1c(=O)c2cc(NC(=O)CCc3cccc(Cl)c3)ccc2n1Cc1cccc(C(F)(F)F)c1 | 0% | 5%
CC(C)C[C@H]1COCCS(=O)(=O)N1Cc1ccc(Cl)c(Cl)c1 | u | u
Cc1ccc(OCC(=O)Nc2ccc(OCc3cc(=O)n4ccsc4n3)cc2)cc1 | -6% | 3%

Rows were taken by chance. About 0.87% of those tested had a hit in this group.
